# HTT promoter inh = inhibits huntingtin promoter activity; HEK293 HTT promoter firefly luciferase reporter (activity 0% = vehicle and -100% = no light), 24 h; Potency, µM (highest dose often 57.5 µM), for inactives: at the highest dose activity change, negative = inhibition, actives largely listed as inhibitors; 48,000 tested, 0.93% active; AID 1508623; active means well fitted inhibition curve with a large enough effect; inconclusive means small, poorly fitted or top-dose-only effect; inactive means no such curve, though single readings can be large or run the other way; further: nearly all actives have a fitted effect of over 50% in size
#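 Firefly luciferase signal from promoter-reporter HEK293 cells was scaled between vehicle (0%) and zero RLU (-100%). Compounds were tested at final concentrations of up to 57.5 uM over 24 h at 37 degrees C. PTC124 at 50 uM final served as control inhibitor.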
# PMP22 txn = modulates PMP22 transcription in S16 Schwann cells; S16 Pmp22-F2sN Schwann cells (luciferase reporters placed in the Pmp22 gene), FLuc/NLuc coincidence luminescence, 24 h; Potency, µM (titrated, usually from 57.5 µM), for the others: at the top dose activity change, negative = inhibition, most hits filed as inhibitors; 43,000 tested, 2% active; active = clear falling dose curves in both reporters; inconclusive = both reporters move, but less clearly or upward; inactive = either reporter flat; the % is the NLuc reporter signal; further: on the % scale 0 is the no-effect control and ±100 the full control effect; some results filed as inactive show a strong effect at the top dose
#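 Rat S16 Pmp22-F2sN cells, 500-1,000/well in phenol red-free DMEM + 10% FBS, compound-treated 24 h (37C, 5% CO2). Luminescence: FLuc read, Stop&Glo added, NLuc read.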
# Starred values were filed as active, the others as inactive; ? = inconclusive; · = no result given; & = joins results of further samples; [ ] = dose if it differs, or a comment. Potency means the concentration at half of the fitted maximal effect. Compounds were not picked by outcome (roughly 2.4% active in at least one column).
SMILES,HTT promoter inh,PMP22 txn
COC(=O)c1ccc(CNC(=O)c2nc(Cn3nc(C)c(Br)c3C)no2)cc1,-11.9%,-17.9%
CCc1ccc(NC(=O)C(Cc2ccccc2)NS(=O)(=O)c2ccc3c(c2)CCN3C(C)=O)cc1 (stereo not given),-18.8%,2.0%
Cc1ccc(Nc2ncc(C(=O)Nc3ccc(F)cc3F)c3ccccc23)cc1Cl,-13.0%,-11.7%
CN(C(=O)c1nc(-c2cccc(F)c2)n2c1CCCCC2)c1ccccc1F,-13.1%,-9.3%
Cc1cc(C)cc(N(C)S(=O)(=O)c2nnc(NC(=O)COc3ccc(Cl)cc3)s2)c1,-1.8%,?
Cc1ccc(NC(=O)CCn2nc(C)c3c(C)n(-c4ccccc4)nc3c2=O)cc1Cl,-7.7%,4.3%
Cc1ccc(N2C(=O)C(CC(=O)Nc3ccc(F)cc3)N(Cc3ccc4c(c3)OCO4)C2=O)cc1 (stereo not given),-17.9%,-24.9%
CC(C)NC(=O)CCSc1nc(-c2ccc3c(c2)OCO3)cc(C(F)(F)F)n1,?,?
Cc1ccc(C)c(N2CCN(C(=O)C(C)n3c(C)c4cnn(-c5ccccc5)c(=O)c4c3C)CC2)c1 (stereo not given),-5.6%,?
COc1ccc(-c2cn3c(n2)sc2cc(C(=O)NCc4cccc(F)c4)ccc23)cc1,-9.9%,?
Cc1ccc(N2C(=O)N(Cc3cc(=O)n4ccccc4n3)c3ccccc3S2(=O)=O)cc1Cl,?,?
Cc1cccc(NC(=O)CSc2nc(C)cc(C)c2C(=O)Nc2ccc(Cl)cc2)c1,-27.0%,?
CCOc1cc(/C=C(\C#N)C(=O)NCC2CCCO2)ccc1O (stereo not given),5.2%,?
CCN(CC)CCNC(=O)Cn1cnc2sc(C)c(S(=O)(=O)N3CCN(c4ccccc4OC)CC3)c2c1=O,?,0.2%
CCOc1ccc(S(=O)(=O)NCc2nc3cccnc3n2Cc2ccccc2OC)cc1,-7.8%,-23.6%
Cn1c(=O)n(CCCc2ccccc2)c(=O)c2c1nc1n2CCN1c1ccccc1,-4.9%,-13.0%
CN(C(=O)CSc1nc2ccccc2[nH]1)c1ccc(F)cc1,7.4%,-4.4%
CCCSCCCNC(=O)C1CCCN(C(=O)c2cnn(-c3ccccc3)c2-n2cccc2)C1 (stereo not given),-21.4%,-20.1%
CCCC(=O)c1cc(O)c(O)cc1O,?,·
Cc1ccc(C(=O)Nc2cccc(C(=O)OCc3cc(=O)n4c5c(sc4n3)CCCC5)c2)cc1,?,?
CN1C(C(=O)Nc2ccc(F)cc2F)=CC(c2ccco2)=NS1(=O)=O,-7.0%,?
CNC(=O)C1CCC(Cn2c(=O)c3sccc3n(CC(=O)Nc3cc(F)ccc3F)c2=O)CC1 (stereo not given),-17.7%,6.8%
CCCOc1ccc(Cn2c(=O)sc3ccccc32)cc1,-6.6%,-14.4%
CCNC(=O)c1cnc2c(-c3ccccc3)c(C)nn2c1C,-9.3%,-3.0%
CC(=O)c1cccc(NC(=O)C2CCN(c3ncnc4c3nc3n4CCCCC3)CC2)c1,-22.2%,?

# Look-ups from the list:
# CCc1ccc(NC(=O)C(Cc2ccccc2)NS(=O)(=O)c2ccc3c(c2)CCN3C(C)=O)cc1 (stereo not given) @ PMP22 txn = 2.0%
# COc1ccc(-c2cn3c(n2)sc2cc(C(=O)NCc4cccc(F)c4)ccc23)cc1 @ HTT promoter inh = -9.9%

# Further compounds
SMILES,HTT promoter inh,PMP22 txn
COC(=O)c1ccc(Cn2nnc3c(=O)[nH]c(C4CCCN(S(=O)(=O)c5ccccc5Cl)C4)nc32)cc1 (stereo not given),-7.7%,?
NC(=O)NNc1ccccc1,-6.6%,·
CC(=O)N1CCc2c(sc(NC(=O)CSc3ccc(C)cc3)c2-c2nc3ccccc3s2)C1,4.0%,?
CC(C)NC(=O)Cn1nc(N2CCN(c3ccccc3)CC2)ccc1=O,-1.4%,2.0%
Cc1ccc(CNC(=O)C(C)n2nc(C)n3c(cc4sccc43)c2=O)cc1 (stereo not given),6.6%,0.6%
Cc1cc2oc(C(=O)Nc3ccc(S(=O)(=O)N4CCC(C)CC4)cc3)cc(=O)c2cc1C,-6.2%,?
CC1CCN(S(=O)(=O)c2ccc(C(=O)Nc3sc4c(c3C(N)=O)CC(C)(C)NC4(C)C)cc2)CC1,-16.3%,?
CCCCN(C(=O)CCn1c(=O)oc2ccccc21)c1ccccc1,-9.6%,-28.3%
Cn1c(=NC(=O)c2ccc(S(=O)(=O)N3CCCC3)cc2)sc2cc(F)ccc21,-1.6%,12.6%
CCCN1CCN(CCCNC(=O)C(CC)n2nc(C)n3c(cc4occc43)c2=O)CC1 (stereo not given),-14.4%,-13.1%
CCOC(=O)CSc1nc2c([nH]c3ccccc32)c(=O)n1-c1ccc(OCC)cc1,-11.1%,?
CCOc1ccc(-c2cc(C)n3nc(C(=O)Nc4cc(Cl)ccc4O)cc3n2)cc1,-4.8%,-2.7%
CSc1ccc(NC(=O)Cn2nnnc2-c2ccccc2F)cc1,6.7%,-9.1%
CCC(C)NC(=O)c1ccc2c(c1)nc1n2CCCCC1 (stereo not given),59.1%[activator],?
CC(C)COc1ccc(C(=O)Nc2cc(-c3ccccc3)no2)cc1,15.0%,?
CCN1CCC[C@H]1CNC(=O)c1c(O)c(Cl)cc(Cl)c1OC,11.2%,·
Cc1ccc(C(=O)Nc2ccc(S(=O)(=O)O)c3cc(S(=O)(=O)O)cc(S(=O)(=O)O)c23)cc1NC(=O)c1cccc(NC(=O)Nc2cccc(C(=O)Nc3cc(C(=O)Nc4ccc(S(=O)(=O)O)c5cc(S(=O)(=O)O)cc(S(=O)(=O)O)c45)ccc3C)c2)c1,-3.2%&-4.9%,·
O=C(Cn1c(=O)n(Cc2ccc(C(=O)NCc3ccc4c(c3)OCO4)cc2)c(=O)c2ccccc21)Nc1ccccc1F,-5.4%,-27.2%
COc1ccc(CNC(=O)C2CCN(S(=O)(=O)c3cccc4nonc34)CC2)cc1OC,-0.7%,8.7%
O=C(CSc1nnc(-c2ccncc2)n1-c1ccccc1)Nc1ccc(Br)cc1,16.3%,-0.1%
CC(=O)N1CCC(N(Cc2ccc(C)o2)C(=O)Nc2cccc(C(F)(F)F)c2)CC1,-20.8%,-1.0%
Cn1nccc1C(=O)NCc1ccc2c(c1)CCN2C(=O)c1ccccc1,-8.3%,3.9%
Cc1ccc(C(=O)CSc2nc(-c3ccccc3)nc3c2CCCC3)cc1,0.5%,-3.6%
Cc1cc(O)c(C(c2ccccc2Cl)N2CCCCC2)c(=O)n1Cc1ccco1 (stereo not given),-3.5%,-17.8%
Cc1ccc(C)c(N2CCN(c3ccc(NC(=O)c4cccs4)cc3C(=O)O)CC2)c1,-11.6%,-25.7%
# Remaining list, next part
SMILES,HTT promoter inh,PMP22 txn
CCOc1ccccc1CNC(=O)C1CCCN(c2nnc(C)c3c(C)n(-c4ccccc4)nc23)C1 (stereo not given),?,?
N#Cc1cccc(NC(=O)C2CCN(c3cnccn3)CC2)c1,-22.7%,?
Cc1ccc2c(=O)c(C(=O)c3ccc(F)cc3)cn(CC(=O)NC3CCCCC3)c2n1,6.1%,5.4%
COc1cccc(-c2ccc3c(N)c(C(=O)Nc4ccc(Cl)cc4F)sc3n2)c1,-11.4%,?
Cc1ccc(NS(=O)(=O)c2ccc3c(c2)CCCN3C(=O)C2CCC2)c(C)c1,?,?
COc1ccc(OC)c(NC(=O)CSc2nccn2-c2cc(C)cc(C)c2)c1,?,?
CCn1c(=N)c(C(=O)NCC2CCCO2)cc2c(=O)n3cc(C)ccc3nc21 (stereo not given),-1.4%,-29.0%
Cc1ccc(CN2CCNCC2)cc1NC(=O)CNc1ccc(F)c(F)c1,-4.9%,·
Cc1nn(CCC(=O)Nc2cc(F)ccc2F)c(=O)c2nn(-c3ccccc3)c(C)c12,?,6.0%
CC(C)(C)OC(=O)Nc1ccc(-c2cc(C(=O)NCCCCCCC(=O)NO)no2)cc1,-10.7%,·
Cc1cc(C)cc(NC(=O)Cn2c(=O)n(Cc3ccc4c(c3)OCO4)c(=O)c3oc4ccccc4c32)c1,0.3%,?
CC1=C(C(=O)OC2CCCC2)C(c2ccccc2C(F)(F)F)CC(=O)N1 (stereo not given),?,-23.8%
Cc1ccc(-c2nnc(Nc3ccc(F)cc3)c3ccccc23)cc1S(=O)(=O)N1CCN(C)CC1,?,?
Cc1ccccc1NC(=O)CSC1=Nc2ccccc2C2=NC(Cc3ccccc3)C(=O)N12 (stereo not given),-18.5%,?
O=C(c1cccc(Cl)c1)N1CCN(CCc2ccccn2)CC1,-23.3%,12.7%
Cc1ccc(C)c(CN2C(=O)c3ccccc3S(=O)c3ccc(C(=O)NCc4ccccc4)cc32)c1 (stereo not given),-20.9%,-34.7%
COCCCC/C(=N\OCCN)c1ccc(C(F)(F)F)cc1,-6.8%,·
COc1ccc(-n2c(SCC(=O)Nc3ccc4c(c3)OCO4)nc3c([nH]c4ccccc43)c2=O)cc1,-14.1%,?
CCc1ccc(NC(=O)Cn2c(=O)n(-c3cc(OC)c(OC)c(OC)c3)c(=O)c3ccccc32)cc1,-20.6%,-3.2%
CSc1ccc(CNC(=O)c2ccccc2NC(=O)c2nsc3ccccc23)cc1,16.7%,29.9%
Cc1ccccc1C(=O)NCC(c1cccnc1)N1CCc2ccccc21 (stereo not given),-25.3%,-84.6%
Cc1cc2c(cc1NC(=O)c1ccccc1Cl)n(C)c(=O)c(=O)n2C,2.3%,-10.6%
Cc1ccc(-c2onc(C)c2C)cc1S(=O)(=O)NC1CCCCC1,?,?
COc1ccc(Cc2nc3ccccc3[nH]c2=O)cc1,-10.5%,-6.4%
CCCCN(CC)Cc1ccc(CNS(=O)(=O)c2cc3c(cc2Cl)NC(=O)CO3)o1,-6.2%,-20.0%

# Whole records from above.
# CN1C(C(=O)Nc2ccc(F)cc2F)=CC(c2ccco2)=NS1(=O)=O across the screens: HTT promoter inh = -7.0%; PMP22 txn = ?
# CCOc1cc(/C=C(\C#N)C(=O)NCC2CCCO2)ccc1O (stereo not given) across the screens: HTT promoter inh = 5.2%; PMP22 txn = ?
# CCC(C)NC(=O)c1ccc2c(c1)nc1n2CCCCC1 (stereo not given) across the screens: HTT promoter inh = 59.1%[activator]; PMP22 txn = ?

# (cont.)
SMILES,HTT promoter inh,PMP22 txn
Cc1cc(C)c(NC(=O)CCS(=O)(=O)c2cc3c(cc2Cl)NC(=O)CO3)c(C)c1,-11.2%,-8.3%
Cc1ccc(CN2CCC(CNC(=O)c3cc4ccc5cccnc5c4[nH]3)CC2)cc1,-23.7%,?
O=C(Nc1ccc(S(=O)(=O)Nc2ncccn2)cc1)c1cccc(Cl)c1,-0.4%,48.7%
CCc1cccc(N2C(=O)CS(=O)(=O)C23C(=O)N(Cc2ccc(F)cc2)c2ccc(C)cc23)c1 (stereo not given),?,-20.6%
CS(=O)(=O)N(Cc1ccccc1)c1ccc(C(=O)Nc2cccc(Cl)c2)cc1,-8.0%,?
Cc1cccn2c(=O)c(/C=C(\C#N)c3nc4ccccc4s3)c(Oc3ccc(F)cc3)nc12,-6.2%[11.5 µM],-44.5%
COc1ccc(CC(=O)NCc2nc3cccnc3n2Cc2ccccc2)cc1,0.0%,5.8%
CCOc1cc(C(=O)Nc2ccc(-c3nc4cc(C)ccc4o3)cc2)cc(OCC)c1OCC,-6.7%,11.0%
O=C1CC(=O)Nc2cc(S(=O)(=O)Nc3ccc(F)cc3Cl)ccc2N1,-6.0%,0.3%
CCOc1ccccc1NC(=O)C(C)Sc1cc(-c2ccccc2)nc(C)n1 (stereo not given),-15.2%,1.0%
CN(C(=O)CSc1cn(CC(=O)N2CCCC2)c2ccccc12)c1ccccc1,-3.9%,20.0%
O=C(Cn1ncc2c(=O)oc3ccccc3c21)NCc1ccc(Cl)cc1,-13.8%,-7.9%
CC(C)OC(=O)c1c(NC(=O)C2c3ccccc3Oc3ccccc32)sc2c1CCCC2,-14.5%,-10.5%
Cc1ccc(NC(=O)CSc2nc3ccc(NC(=O)c4cccs4)cc3s2)c(C)c1,?,?
COc1ccccc1CN(Cc1ccco1)c1cnc(S(C)(=O)=O)nc1C(=O)Nc1ccccc1Cl,?,8.1%
COc1cccc(-n2c(SCC(=O)Nc3cccc(C)c3)nc3c([nH]c4ccccc43)c2=O)c1,-29.2%,4.6%
COc1ccc(Br)cc1CNC(=O)c1cnc2sc(N3CCCCCC3)nn2c1=O,-20.8%,?
CC(C)(C)c1ccc(C(=O)NCC(c2ccc(Cl)cc2)N2CCOCC2)cc1 (stereo not given),?,?
COc1ccc(CCNc2ncnc3c2cnn3-c2ccc(C)c(Cl)c2)cc1,-6.0%,-43.2%
O=C(Nc1sc2c(c1C(=O)Nc1ccccc1)CCC2)c1ccc(Br)cc1,-8.5%,-23.2%
CC(=O)Nc1ccccc1-c1nc2ccccc2n(Cc2cccc(Br)c2)c1=O,0.1%,2.9%
O=C(CSc1nc2c([nH]c3ccccc32)c(=O)n1-c1cccc(C(F)(F)F)c1)N1CCCC1,-10.9%,-2.6%
O=C(CSc1nc2ccccc2n1Cc1cccc(C(F)(F)F)c1)NCc1ccccc1,-20.4%,?
CCOC(=O)c1c(C)oc2nc(C)nc(Nc3cccc(OC)c3)c12,3.6%,2.9%
Cc1ccc(CSc2cn(CC(=O)N3CCCC3)c3ccccc23)cc1,21.0%,?

# Source: PubChem
